# Source: PubChem BioAssay (National Center for Advancing Translational Sciences (NCATS))
# nsP2pro inh = Primary qHTS for inhibitors of NSP2Pro chikungunya virus (CHIKV); AID 1964107, 2024; Potency, µM (doses to about 24.9 µM), for the others: at the highest dose activity change, negative = inhibition, hits mostly inhibitors; Polyprotein P1234 (Chikungunya virus (strain S27-African prototype)), Q8JUX6; FRET peptide cleavage, nsP2pro, fluorescence 1 h; hit rate 1.1% among 31,000; active means well fitted inhibition curve with a large enough effect; inconclusive means small, poorly fitted or top-dose-only effect; inactive means no such curve, though single readings can be large or run the other way; note: nearly all actives have a fitted effect of over 60% in size; a reference inhibitor and vehicle were the controls
# Target sequence (Q8JUX6 whole entry, looked up): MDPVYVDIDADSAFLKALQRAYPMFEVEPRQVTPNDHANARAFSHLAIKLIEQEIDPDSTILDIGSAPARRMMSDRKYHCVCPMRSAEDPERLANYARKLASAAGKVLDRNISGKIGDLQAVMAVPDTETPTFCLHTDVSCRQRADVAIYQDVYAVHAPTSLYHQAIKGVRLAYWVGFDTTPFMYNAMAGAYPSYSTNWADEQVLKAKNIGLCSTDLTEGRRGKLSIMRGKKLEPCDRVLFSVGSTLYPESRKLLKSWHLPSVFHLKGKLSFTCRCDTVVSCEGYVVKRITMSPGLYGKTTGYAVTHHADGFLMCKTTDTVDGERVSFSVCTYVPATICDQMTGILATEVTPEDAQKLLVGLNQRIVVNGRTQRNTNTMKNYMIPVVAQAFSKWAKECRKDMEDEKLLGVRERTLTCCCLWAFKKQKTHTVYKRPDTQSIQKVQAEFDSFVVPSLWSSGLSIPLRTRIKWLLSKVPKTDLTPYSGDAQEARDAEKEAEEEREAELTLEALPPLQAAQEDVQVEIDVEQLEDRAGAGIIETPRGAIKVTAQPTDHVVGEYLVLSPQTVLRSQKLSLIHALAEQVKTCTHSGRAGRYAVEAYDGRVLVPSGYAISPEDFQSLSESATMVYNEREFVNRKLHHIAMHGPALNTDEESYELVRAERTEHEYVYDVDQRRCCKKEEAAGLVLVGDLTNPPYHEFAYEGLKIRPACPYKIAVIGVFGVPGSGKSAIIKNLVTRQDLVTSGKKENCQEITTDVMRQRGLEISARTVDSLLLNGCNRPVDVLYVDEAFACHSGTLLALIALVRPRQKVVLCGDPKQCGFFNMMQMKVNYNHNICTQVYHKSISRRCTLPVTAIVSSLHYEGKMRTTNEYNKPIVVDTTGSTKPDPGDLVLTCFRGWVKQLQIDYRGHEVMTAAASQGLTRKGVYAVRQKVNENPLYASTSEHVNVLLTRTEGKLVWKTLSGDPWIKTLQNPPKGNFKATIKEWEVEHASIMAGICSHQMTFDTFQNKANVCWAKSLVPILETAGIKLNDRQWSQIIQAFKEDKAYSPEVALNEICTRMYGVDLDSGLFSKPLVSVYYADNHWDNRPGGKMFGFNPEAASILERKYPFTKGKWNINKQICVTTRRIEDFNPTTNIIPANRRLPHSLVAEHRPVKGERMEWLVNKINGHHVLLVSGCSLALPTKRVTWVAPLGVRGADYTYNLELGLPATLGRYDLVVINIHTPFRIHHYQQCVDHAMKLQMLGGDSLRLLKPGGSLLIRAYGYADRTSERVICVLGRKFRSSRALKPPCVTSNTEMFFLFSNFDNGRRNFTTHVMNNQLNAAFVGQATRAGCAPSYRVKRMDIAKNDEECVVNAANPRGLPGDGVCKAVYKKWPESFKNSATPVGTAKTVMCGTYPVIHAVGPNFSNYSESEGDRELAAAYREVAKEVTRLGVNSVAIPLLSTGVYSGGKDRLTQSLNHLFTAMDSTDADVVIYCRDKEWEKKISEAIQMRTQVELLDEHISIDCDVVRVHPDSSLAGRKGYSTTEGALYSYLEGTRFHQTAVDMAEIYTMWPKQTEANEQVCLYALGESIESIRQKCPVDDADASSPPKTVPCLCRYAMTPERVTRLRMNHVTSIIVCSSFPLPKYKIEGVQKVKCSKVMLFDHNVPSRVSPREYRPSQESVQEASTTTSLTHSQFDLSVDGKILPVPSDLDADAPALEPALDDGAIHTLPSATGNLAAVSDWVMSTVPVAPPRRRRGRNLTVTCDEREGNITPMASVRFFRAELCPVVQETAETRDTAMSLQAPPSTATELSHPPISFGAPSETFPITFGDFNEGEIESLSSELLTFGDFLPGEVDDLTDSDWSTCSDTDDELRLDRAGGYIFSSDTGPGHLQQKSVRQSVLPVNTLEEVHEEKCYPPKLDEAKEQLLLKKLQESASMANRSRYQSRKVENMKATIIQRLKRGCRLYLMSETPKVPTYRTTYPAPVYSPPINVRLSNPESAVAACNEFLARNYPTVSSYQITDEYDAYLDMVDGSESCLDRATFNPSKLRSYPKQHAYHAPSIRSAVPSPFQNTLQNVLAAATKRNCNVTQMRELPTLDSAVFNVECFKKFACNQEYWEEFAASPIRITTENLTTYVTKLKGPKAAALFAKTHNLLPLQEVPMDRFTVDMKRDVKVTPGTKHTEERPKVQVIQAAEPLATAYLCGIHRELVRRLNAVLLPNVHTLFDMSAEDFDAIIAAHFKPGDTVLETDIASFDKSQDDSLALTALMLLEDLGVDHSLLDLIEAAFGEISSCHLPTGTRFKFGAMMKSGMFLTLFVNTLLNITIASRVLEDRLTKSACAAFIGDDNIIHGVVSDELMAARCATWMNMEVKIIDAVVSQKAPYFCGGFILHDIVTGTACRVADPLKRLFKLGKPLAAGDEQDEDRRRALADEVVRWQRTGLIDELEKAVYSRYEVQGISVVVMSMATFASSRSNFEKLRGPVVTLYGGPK
# * marks the source's active call; other numbers are inactive results; i = inactive; ? = inconclusive; & = joins results of further samples; [ ] = dose if it differs, or a comment. % is set by controls: 0 for no effect and ±100 for the full control effect; potency is the fitted concentration of half-maximal effect. A portion of the library; rates above refer to the full screens.
SMILES,nsP2pro inh
O=C(NC1CCCc2c1cnn2-c1ccc(F)cc1F)c1cccc(=O)[nH]1 (configuration not stated),-9%
Cc1cc(-c2ccccc2)nc2c(C(=O)Nc3ccc4c(c3)CCC4)cnn12,0%
CCOC(=O)C1=C(N)Oc2ccc(Br)cc2C1C(C#N)C(=O)OCC (configuration not stated),15%&-13%
Fc1cc(Nc2nc(-c3ccncc3)nc3ccccc23)ccc1-c1cccnc1,-11%
COc1ccc(NC(=O)CSc2nc(-c3cccc(C)c3)[nH]c2-c2ccccc2)cc1OC,-2%
Cc1c(C)c2c(c(C)c1OC(=O)CCC(=O)OCCO)CC[C@@](C)(CCC[C@H](C)CCC[C@H](C)CCCC(C)C)O2,-3%
CC(C)NC(=O)C1CCC(=O)N1C1CCN(C(=O)CC(C)(C)C)CC1 (configuration not stated),3%
Cc1coc2c1C(=O)C(=O)c1c-2ccc2c(C)cccc12,?
CCOC(=O)C1CCCN(S(=O)(=O)c2cc(-c3cc(C)no3)ccc2OC)C1 (configuration not stated),-9%
CCC[C@H]1CN(C(=O)c2cc(=O)[nH]c3cc(F)ccc23)C[C@@H]1N,-7%
COc1ccc(C(CNC(=O)COc2ccc(C)c(C)c2)N2CCCCC2)cc1 (configuration not stated),-7%
Cc1ccc(NC(=O)Cn2ncn3c(cc4ccccc43)c2=O)cc1F,17%
COc1ccc(C(=O)N2CCC3(CC2)CN(c2ccccc2)C3=O)cc1OC,-4%
Cc1noc(C)c1C(=O)N1CCC2(CC1)CN(C(=O)Cc1cccc(Cl)c1)CCO2,-3%
Cc1ccc(N=Nc2c(O)ccc3ccccc23)c([N+](=O)[O-])c1,11%[39.2 µM]
CN1[C@@H]2CCC[C@H]1CC(NC(=O)c1nn(C)c3ccccc13)C2 (some centres not stated),-1%
CCNC(=O)[C@@H]1C[C@H](NC(=O)c2oc(C)nc2C)CN1Cc1nc(C)no1,?
COc1ccc(NC(=O)Cn2c(=O)n(CCCCCC(=O)NCc3ccc4c(c3)OCO4)c(=O)c3sccc32)cc1Cl,-9%
Cc1ccc2ncc(C(=O)N3CCN(c4ccccc4F)CC3)c(=O)n2c1,-13%
CC(CNC(=O)Cc1ccc(NC(=O)N2CCSc3ncccc32)cc1)c1ccccc1 (configuration not stated),-12%
COc1cc(NC(=O)C2CCN(c3cnc4ccccc4n3)CC2)cc(OC)c1OC,-19%
CCOc1ccc(NC(=O)Cn2c(=O)oc3cc(S(=O)(=O)N4CCCCCC4)ccc32)cc1,-17%
O=c1c2ccccc2nc2sc(Nc3ccc(Sc4ccccc4)cc3)nn12,?
CCCN[C@H]1CCc2nc(N)sc2C1,4%
COc1cc(Cl)c(C)cc1Nc1ncnc2c1nc1n2CCCC1,-22%
# Further entries
SMILES,nsP2pro inh
CCOc1ccc(CCNC(C)=O)cc1OCC,i
CCOc1ccccc1NC(=O)C(CC)n1c(C(=O)OC)cc2occc21 (configuration not stated),-13%
CCN1CCc2c(sc(-n3cccc3)c2C(CCC(C)C)NC(=O)NCCC(=O)OC)C1 (configuration not stated),?
COc1ccc(NC(=O)c2sc3nc(-c4ccc(OC)cc4)cc(C(F)(F)F)c3c2N)cc1,-23%
Cn1c(=O)c2c(SCC(=O)Nc3ccc(F)cc3F)nc(C3CCCC3)nc2n(C)c1=O,-19%
O=C(NCc1nnc2n1C(C(=O)NCc1ccc(F)cc1)CC2)Nc1cccnc1 (configuration not stated),-19%
O=C(NCc1ccc(Cl)cc1)c1cc2cccc3c2n1CCS3,4%
CCCCCn1cc(C(=O)Oc2cccc3cccnc23)c2ccccc21,3%
CCc1nc(N)nc(N)c1-c1ccc(Cl)cc1,1%
Cc1ccccc1NC(=O)N1CCC(N(CCC(C)C)C2CCOCC2)CC1,1%
CNc1oc(-c2cccc3ncccc23)nc1C#N,-3%
CC1=C(C(=O)OCc2ccc(C)cc2)C(c2ccccc2F)CC(=O)N1 (configuration not stated),-2%
O=C(c1cc(F)ccc1F)N1CCC(Oc2cccnc2)C1 (configuration not stated),i
CCN(CC)CCn1c(-c2ccccc2)nc2c(NCc3ccccc3)nc(C)nc21,i
Cc1cc(NS(=O)(=O)c2ccc(NC(=O)Cc3ccc(C)c(C)c3)cc2)no1,i
O=C(N1CCCCCC1CN1CCOCC1)C1(c2ccccc2)CC1 (configuration not stated),-26%
CN(CCc1nc2ccc(Cl)cc2[nH]1)c1cc(C2CC(O)C2)nc(N)n1 (configuration not stated),i
CCCCCn1c(=O)[nH]c2cc(C(=O)NCc3ccccc3)ccc2c1=O,-30%
COc1ccc([C@H]2C[C@@H](O)[C@@H](O)[C@@H]2NCc2ccc(OC)nc2)cc1,i
CN(C)C(=O)[C@]12CCCC[C@@H]1N(CCc1ccccc1)C(=O)CC2,3%
N[C@H](C(=O)Nc1ccc(Cl)cc1C(=O)c1ccc[nH]1)c1ccccc1,-23%
CN(C)c1cc(NC(=O)CNC(C)(C)C)c(O)c2c1C[C@@H]1C[C@H]3[C@H](N(C)C)C(=O)C(C(N)=O)=C(O)[C@@]3(O)C(=O)C1=C2O,130%[activator]
O=C(c1n[nH]c2c1CCCCCC2)N1CCc2c(nc3cc(-c4ccccc4)[nH]n3c2=O)C1,0%
Cc1cnc(-c2ccncc2)n1CCNC(=O)NCc1ccc(F)cc1,i
CCn1ncc(NC(=O)Cn2ncc3cc(-c4ccccc4F)ccc32)n1,i
# The listing continues:
SMILES,nsP2pro inh
CC1CCC2(C)C(CC(O)C(O)C23CO3)C1(C)CCC1=CC(O)OC1=O (configuration not stated),-4%
N#Cc1c(C(F)(F)F)cc(-c2cccs2)nc1SCc1ccccc1F,-22%
Cc1cc2nn(-c3ccc(Cl)cc3)nc2cc1NC(=O)C(C)C,-14%
CN1CCN(c2ccc(-c3nccc4c(=O)cc(N(C)C5CCOCC5)oc34)cn2)CC1,?
COc1cccc(C(=O)Nc2ccc(-c3cn4cccnc4n3)cc2)c1OC,-8%
CCOc1ccccc1NC(=O)C1CCN(c2cnc3nccnc3c2)CC1,-15%
NCc1ccccc1CC(=O)N[C@@H]1C(=O)N2C(C(=O)O)=C(CSc3nnnn3CC(=O)O)CS[C@H]12,12µM*
Cc1noc2c(-c3cccc(CO)c3)cc(-c3cccc(C(F)(F)F)c3)nc12,i
COC(=O)CCN(c1ccccc1)C(CNS(=O)(=O)c1ccccc1)c1ccccc1 (configuration not stated),-11%
OCC1OC(Oc2cc(O)cc(/C=C/c3ccc(OC4OC(CO)C(O)C(O)C4O)cc3O)c2)C(O)C(O)C1O (configuration not stated),7%[10 µM]
Cc1nc2nc(NC(=O)c3ccc(C(C)(C)C)cc3)[nH]n2c(=O)c1Cc1ccccc1,-16%
Cc1cc(Nc2cccc(C(F)(F)F)c2)nc2ccc(NC(=O)c3cncc(Br)c3)cc12,42%[activator]
Cc1ccc(-n2c(SCc3nc(-c4ccc(Cl)cc4)no3)nnc2-c2ccncc2)cc1,-3%
CCn1cc(C(=O)OCC(=O)Nc2cccc(Cl)c2C)c(=O)c2ccc(C)nc21,-25%
COc1ccc(C(=O)NCC(c2ccco2)S(=O)(=O)c2cccs2)cc1OC (configuration not stated),-17%
CCOC(=O)c1c(S(=O)(=O)NCC(=O)Nc2ccc(Cl)c(C(F)(F)F)c2)c(C)n(C)c1C,-19%
O=C1OC(c2ccccc2)(c2ccccc2)N2CCN(C(=O)NCc3ccc(F)cc3)CC12 (configuration not stated),-5%
C/C=C/c1cc(OC)c2c(c1)[C@@H](C)[C@@H](c1ccc(O)c(OC)c1)O2,11%
CCN(CC)C(=O)CSc1nnc2ccc3ccccc3n12,-18%
CCc1ccc(CN(Cc2ccco2)C(=O)COc2ccccc2Cl)cc1,?
COCCOCc1nc(C2CCN(C(=O)Nc3ccc(C(=O)OC)cc3)CC2)no1,3%
CCC(=O)O[C@H]1CC[C@H]2[C@@H]3CCC4=CC(=O)CC[C@]4(C)[C@H]3CC[C@]12C,-2%
Cc1ccc(-c2nccc(=O)n2C(C)C(=O)NCCc2ccccc2)cc1 (configuration not stated),i
CC(c1ccon1)N(C)C(=O)c1csc2nc(-c3cccc(C(F)(F)F)c3)cn12 (configuration not stated),i
COc1ccccc1-c1nn(CCC(=O)Nc2ccccc2)c2nc(C)cc(C)c12,-10%
# Next results follow:
SMILES,nsP2pro inh
C[C@@H]1CN(c2nc(-c3ccccc3)no2)CC[C@@]1(O)C1CCC1,i
Cc1nc(C2CC(O)C2)cc(N2CCC(OCc3cccnc3)CC2)n1 (configuration not stated),-7%
O=C1OCc2cc3cccc(O[C@@H]4O[C@H](CO)[C@@H](O)[C@H](O)[C@H]4O)c3c(O)c21,97%[activator]
Cc1noc(C)c1S(=O)(=O)N1CCCC(C(=O)Nc2ccc(C(C)C)cc2)C1 (configuration not stated),-31%
COc1cccc(NC(=S)N2CCN(c3ccc4ccccc4n3)CC2)n1,-14%
Cc1ccc(C)c(CC(=O)N2CCN(CCO)CC(O)C2)c1 (configuration not stated),-8%
CC(C)c1cc(C2CCN(Cc3cn[nH]c3-c3ccccc3)CC2)[nH]n1,4%
Cc1ccc(C(=O)Oc2ccc(-c3nc4ccccc4[nH]3)cc2)cc1Br,-17%
Cc1noc(-c2ccc(NCc3ccccc3)c([N+](=O)[O-])c2)n1,-23%
Cc1ccc(S(=O)(=O)N2CCCCCC2c2nnc(C)o2)c(C)c1 (configuration not stated),2%
C[C@]12CC[C@H](O)CC1=CC[C@@H]1[C@@H]2CC[C@]2(C)C(=O)CC[C@@H]12,-16%&3%&-2%
COc1ccc(NC(=O)CCc2c(C)nn(-c3ccc(N4CCOCC4)nn3)c2C)cc1Cl,-3%
Cc1ccc(N(Cc2cccs2)C(=O)C(C)Oc2ccc(Cl)c(C)c2)cc1 (configuration not stated),-14%
CC(NC(=O)CCCN1C(=O)CCn2nc(-c3cn(C)c4ccccc34)cc21)c1ccccc1 (configuration not stated),-12%
CCCn1c(C)nc2c(N(CCOC)CCOC)nc(C)nc21,3%
CC(C)c1cnn2c(NCc3ccccc3-n3cccn3)nc(OC3CCCNC3)nc12 (configuration not stated),6%
COc1ccc(NC(=O)c2c(NC(=O)Cc3ccccc3)sc3c2CCCC3)cc1,-15%
CC1=CCC(O)C2(C)CCC3C(C)C(=O)OC3C12 (configuration not stated),-1%
Cc1ccc2[nH]c(CCC(=O)N3CC[C@H](CO)[C@H](O)C3)nc2c1C,1%
Cc1occc1C(=O)N1CCC2(CC1)N=C(CC(C)C)NC2=O,-3%
CCc1cc(C(=O)N2CCN(c3ccccc3)CC2)no1,-2%
C=C(C(=O)OC[C@H]1O[C@@H](OC(=O)/C=C/c2ccccc2)[C@H](O)[C@@H](O)[C@@H]1O)C(O)CO (some centres not stated),-52%[10 µM]
O=P1(NCCCl)OCCCN1CCCl (configuration not stated),5%
CC(=O)N1CCN(c2nc3c(s2)CC(C(=O)Nc2cc(Cl)ccc2F)CC3)CC1 (configuration not stated),i
CCOC(=O)C1CCN(Cc2cn3c(-c4ccc(OC)cc4)nnc3s2)CC1,?

# Arranged by length of the SMILES (falling): 15 of the compounds above
SMILES,nsP2pro inh
O=C1OCc2cc3cccc(O[C@@H]4O[C@H](CO)[C@@H](O)[C@H](O)[C@H]4O)c3c(O)c21,97%[activator]
C[C@]12CC[C@H](O)CC1=CC[C@@H]1[C@@H]2CC[C@]2(C)C(=O)CC[C@@H]12,-16%&3%&-2%
CC(NC(=O)CCCN1C(=O)CCn2nc(-c3cn(C)c4ccccc34)cc21)c1ccccc1 (configuration not stated),-12%
COc1ccc(NC(=O)CCc2c(C)nn(-c3ccc(N4CCOCC4)nn3)c2C)cc1Cl,-3%
CC(=O)N1CCN(c2nc3c(s2)CC(C(=O)Nc2cc(Cl)ccc2F)CC3)CC1 (configuration not stated),i
Cc1ccc2[nH]c(CCC(=O)N3CC[C@H](CO)[C@H](O)C3)nc2c1C,1%
COc1ccc(NC(=O)c2c(NC(=O)Cc3ccccc3)sc3c2CCCC3)cc1,-15%
CC(C)c1cc(C2CCN(Cc3cn[nH]c3-c3ccccc3)CC2)[nH]n1,4%
Cc1ccc(C(=O)Oc2ccc(-c3nc4ccccc4[nH]3)cc2)cc1Br,-17%
Cc1noc(-c2ccc(NCc3ccccc3)c([N+](=O)[O-])c2)n1,-23%
Cc1ccc(S(=O)(=O)N2CCCCCC2c2nnc(C)o2)c(C)c1 (configuration not stated),2%
Cc1occc1C(=O)N1CCC2(CC1)N=C(CC(C)C)NC2=O,-3%
CCCn1c(C)nc2c(N(CCOC)CCOC)nc(C)nc21,3%
CC1=CCC(O)C2(C)CCC3C(C)C(=O)OC3C12 (configuration not stated),-1%
O=P1(NCCCl)OCCCN1CCCl (configuration not stated),5%

# Additional structures follow:
SMILES,nsP2pro inh
CC(NC(=O)CSc1n[nH]c(-c2ccccc2)n1)c1nc2ccccc2n1C (configuration not stated),-21%
COc1cc2c(s1)c1cnn(Cc3ccccc3F)c(=O)c1n2C,i
Cc1ccc(Cc2nc3ccccc3nc2SCC(=O)Nc2ccc3c(c2)OCO3)cc1,-17%
CNC(=O)[C@H](Cc1c[nH]c2ccccc12)NC(=O)[C@@H](CC(=O)NO)CC(C)C,-21%&-4%
COc1cc([C@@H]2c3cc4c(cc3[C@H](O)[C@@H](CO)[C@@H]2C(=O)NC(C)C)OCO4)cc(OC)c1OC,-2%
Cc1[nH]c2ccccc2c1CC(=O)NCc1ccccc1-n1cncn1,-25%
COc1cccc(N2CCN(C(=O)CCn3ccn4nc5c(c4c3=O)CCCC5)CC2)c1,4%
Cc1cc(C)cc(OCC(=O)Nc2c(C)ccc3nsnc23)c1,10%
O=C(CSc1nc(=O)n(Cc2cccnc2)c2c1CCC2)Nc1cccc(Cl)c1,-2%
COc1cc(O)c(C(CC(=O)N2CCCC(C)C2)c2ccc(OC)c(OC)c2)c(OC)c1 (configuration not stated),-5%[39.2 µM]
COC(=O)[C@@H]1[C@H]2C[C@H]3c4[nH]c5ccccc5c4CCN3C[C@@H]2CC[C@@H]1O,?
O=C(N[C@@H]1CN(C2CCOCC2)CC[C@@H]1CO)c1ccccc1,-9%
